Screening results (PubChem)
2A firefly: FMDV 2A StopGo reporter, firefly signal; HEK cells with a luciferase reporter of 2A StopGo recoding; Potency, µM (titrated, usually from 57.5 µM), without a hit: top-dose signal change, negative = less light; actives 0.23% (n = 120,000); active = well fitted falling curve with a large enough effect; inconclusive = small, poorly fitted or top-dose-only effect; inactive = no such curve, though single readings can be large or run the other way; note: nearly all actives have a fitted effect of over 60% in size; overnight with compound
2A Renilla: lowers the Renilla signal of an FMDV 2A StopGo reporter; AID 1745857; HEK cells with a luciferase reporter of 2A StopGo recoding; actives 0.32% (n = 120,000); Potency, µM (top dose mostly 57.5 µM), without a hit: at the top dose signal change, negative = less light; active means well fitted falling curve with a large enough effect; inconclusive means small, poorly fitted or top-dose-only effect; inactive means no such curve, though single readings can be large or run the other way; note: nearly all actives have a fitted effect of over 55% in size; overnight with compound
The depositor's hits bear a star; ? = inconclusive; & = joins results of further samples; [ ] = dose if it differs, or a comment. % is set by controls: 0 for no effect and ±100 for the full control effect; potency is the fitted concentration of half-maximal effect. Outcome played no part in choosing rows; 0.53% or so of the library scored in one or more.

SMILES | 2A firefly | 2A Renilla
O=C(CCc1nc2ccccc2s1)NCCc1ccc(C(F)(F)F)cc1 | 17% | 9%
COP(=O)(OC)c1nc(-c2ccc([N+](=O)[O-])cc2)oc1NCc1ccc(C)cc1 | 7% | 5%
O=C(CCC1CCCC1)Nc1cccc2ccccc12 | 99%[activator] | 78%[activator]
CC(=O)c1ccc(NC(=O)c2ccc(-n3cnnc3)cc2)cc1 | -11% | -10%
CC1CCCC(NC(=O)c2cc(Sc3ccc(F)cc3)nc3ccccc23)C1C (stereo not given) | 7% | 49%[activator]
O=S(CCCOc1ccc(F)cc1)Cc1ccc(F)cc1 (stereo not given) | -20% | 15%[1.06 µM]
O=C(C1CCN(c2ncnc3c2nc2n3CCCCC2)CC1)N1CCN(c2ccc(Cl)cc2)CC1 | -5% | -3%
Cn1cc(S(=O)(=O)N2CCOCC2)cc1C(=O)Nc1cccc(C#N)c1 | -4% | 5%
COc1ccc(C(=O)NC2CCCCC2)cc1C | 176%[activator] | 49%[activator]
Cc1c(Br)c2ccccc2n1CC(=O)N(C)C | -12% | -14%
COc1ccc(Nc2ncc3c(n2)CCN(Cc2cccc(F)c2F)C3)c(OC)c1 | 1% | -2%
CNc1oc(/C=C/c2ccc(OC)c(OC)c2)nc1C#N | 0% | -1%
COc1ccc(C(=O)C(C#N)C(=O)c2ccc(C)c(OC)c2)cc1 (stereo not given) | 18% | 26%
Cc1ccc(Cn2nnc3c2-c2ccccc2S(=O)(=O)N(C(C)(C)C)C3)cc1 | -6% | 123%[activator]
CC(=O)Nc1ccc(NC(=O)C2=C(c3ccccc3)SCCO2)cc1 | -4% | 3%
CCc1cc2c(C)cc(=O)oc2cc1OCC(=O)c1ccccc1 | 9% | -2%
O=C(NCc1cccs1)c1ccc2c(c1)N(Cc1cccc(F)c1)C(=O)c1ccccc1S2 | -18% | 43%[activator]
CCC(=O)N1c2ccc(S(=O)(=O)N3CCN(c4ccccc4Cl)CC3)cc2CC1C (stereo not given) | 33%[activator] | 0%
Cc1cccc(N2CCN(c3nc4ccccc4c(=O)n3-c3ccc(Cl)cc3)CC2)c1C | -10% | -7%
CCCCNS(=O)(=O)c1ccc2nc(NC(=O)c3cccnc3)sc2c1 | 18% | 290%[activator]
Cc1cccc(C(=O)NC(Nc2ccc(Cl)cc2)C(Cl)(Cl)Cl)c1 (stereo not given) | -2% | -1%
Cc1cccc(Oc2coc3cc(OCC(=O)NC4CCCCC4)ccc3c2=O)c1 | -15% | -10%
COc1ccc(OC)c(S(=O)(=O)N2Cc3ccccc3CC2C(=O)Nc2ccc(Cl)cc2)c1 (stereo not given) | 19% | 152%[activator]
COc1ccc(C(C)=O)cc1CO/N=C/c1ccc(OC(F)F)c(OC)c1 | 0% | 4%
CCc1ccc(N/C(N)=N/c2nc(C)cc(C)n2)cc1 | ? | ?
CCOC(=O)c1c(C)[nH]c(C(=O)C(C)Nc2cc(OC)ccc2OC)c1C (stereo not given) | 54%[activator] | 5%
Cc1ccc(OCC(=O)Nc2ccc(OCc3cc(=O)n4cccc(C)c4n3)cc2)cc1C | -25% | 21%
O=C(CCOc1ccccc1)N(Cc1cccnc1)c1nc2c(F)cccc2s1 | 0% | -3%
COc1ccc(-c2nc3cc(NC(C)=O)ccc3o2)cc1OC | 241%[activator] | 0%
COc1cccc(CNC(=O)Cc2c(C)c3cc4c(C)coc4cc3oc2=O)c1 | -7% | -3%
Cc1ccc(C(=O)C(C)OC(=O)c2cc3ccccc3oc2=O)cc1 (stereo not given) | 23% | 10%
CC(=O)c1c(C)[nH]c(C(=O)OC(C)c2nnc(-c3cccc(C)c3)o2)c1C (stereo not given) | -27% | 0%
CN1CCN(C(c2ccc(Cl)cc2Cl)c2sc3nc(-c4ccco4)nn3c2O)CC1 (stereo not given) | -14% | -7%
CN1C[C@H]2c3ccccc3Oc3ccc(Cl)cc3[C@@H]2C1 | -9%[11.5 µM] | -4%
Cc1ccc(-n2c(=O)c3ccccc3n3c(SCC(=O)Nc4ccccc4)nnc23)cc1 | 15% | -2%
CCN(CC)S(=O)(=O)c1ccc(-c2csc(N)n2)cc1 | 61%[activator] | 43%[activator]
C=CCNC(=O)c1cc(-c2ccncc2)nc2ccccc12 | 0% | 20%
Cc1ccc(/C=C/C(=O)c2ccc(C)o2)o1 | 0% | 14%
CSc1ccc(CN(C)C(=O)CSc2nnc(COc3ccc(Cl)cc3)n2C)cc1 | 10µM* | 4µM*
Cc1nc(NCCCNC2CCCCC2)c2cnn(C)c2n1 | -13% | -4%
CC(C)Cn1c(SCC(=O)NC(C)c2ccc(F)cc2F)nc2ncccc2c1=O (stereo not given) | 1% | 6%
COc1ccccc1CNC(=O)CCC1N=C2c3ccccc3N=C(SCc3ccc(Cl)cc3)N2C1=O (stereo not given) | 15% | 9%
N#CCSc1nnc(-c2nn(Cc3ccccc3)c(=O)c3ccccc23)o1 | ? | ?
O=C(CSc1nc(CN2CCOCC2)nc2ccccc12)NC1CC1 | -14% | -22%
COC(=O)c1sc(NC(=O)c2csc3ccccc23)nc1C | 161%[activator] | 1%
CC(Sc1nc2cc(S(=O)(=O)N3CCCCC3)ccc2o1)C(=O)Nc1ccc(F)cc1 (stereo not given) | 27% | 33%[activator]
Cc1cc(C(=O)CSc2n[nH]c(C(C)C)n2)c(C)n1C1CC1 | 38%[activator] | -6%
Cc1sc(/N=C/c2ccc(C(C)(C)C)cc2)c(C#N)c1C | 16% | 2%
Oc1ccc(-c2nc3ccc(Cl)cn3c2Nc2ccc3c(c2)OCO3)cc1 | 43%&72%[activator] | 23%&-5%
O=C(Nc1ccc2oc(-c3cccnc3)nc2c1)c1ccc(Cl)cc1 | 14% | -7%
O=C1OC(C(=O)Nc2ccc(Cl)c(C(F)(F)F)c2)Cc2ccccc21 (stereo not given) | 26% | 54%[activator]
CCCCc1nc(SCC(=O)Nc2ccc(S(N)(=O)=O)cc2)n[nH]1 | -7% | -3%
CCC1CCCCN1C(=O)C1=CC(c2ccc(OC)cc2)=NS(=O)(=O)N1C (stereo not given) | 11% | 37%[activator]
COc1ccc(S(=O)(=O)NC(C)(C)C)cc1-c1nnc2c3ccccc3c(C)nn12 | -9% | 65%[activator]
Cc1nnc2n1-c1sc(CCc3ccc(CC(C)C)cc3)cc1C(c1ccccc1Cl)=NC2C (stereo not given) | ? | ?
Cc1c(C(=O)C(=O)NCc2ccc(F)cc2)c2ccccc2n1C | 12% | 62%[activator]
COC(=O)c1ccccc1NC(=O)Cn1c(=O)nc(-c2ccccc2)c2cc(Cl)ccc21 | 2% | -6%
O=C(Cc1cccc(F)c1)NCc1ccnc(OCc2ccccc2)c1 | 39%[activator] | 6%
CCOc1ccc2ncc(S(=O)(=O)c3ccccc3)c(N3CCCCC3)c2c1 | 8% | 0%
O=C(c1ccccn1)N1CCN(C(c2ccc(F)cc2)c2ccc(F)cc2)CC1 | -11% | -11%

Arranged by count of non-hydrogen atoms (rising): 6 of the compounds above
SMILES | 2A firefly | 2A Renilla
CCc1ccc(N/C(N)=N/c2nc(C)cc(C)n2)cc1 | ? | ?
Cc1ccc(C(=O)C(C)OC(=O)c2cc3ccccc3oc2=O)cc1 (stereo not given) | 23% | 10%
COP(=O)(OC)c1nc(-c2ccc([N+](=O)[O-])cc2)oc1NCc1ccc(C)cc1 | 7% | 5%
Cc1cccc(N2CCN(c3nc4ccccc4c(=O)n3-c3ccc(Cl)cc3)CC2)c1C | -10% | -7%
Cc1ccc(OCC(=O)Nc2ccc(OCc3cc(=O)n4cccc(C)c4n3)cc2)cc1C | -25% | 21%
Cc1nnc2n1-c1sc(CCc3ccc(CC(C)C)cc3)cc1C(c1ccccc1Cl)=NC2C (stereo not given) | ? | ?

A different layout for part of the listing above.
molecule	2A firefly	2A Renilla
Oc1ccc(-c2nc3ccc(Cl)cn3c2Nc2ccc3c(c2)OCO3)cc1	43%&72%[activator]	23%&-5%
Cc1nc(NCCCNC2CCCCC2)c2cnn(C)c2n1	-13%	-4%
CCc1ccc(N/C(N)=N/c2nc(C)cc(C)n2)cc1	?	?

Continued:
SMILES | 2A firefly | 2A Renilla
COc1ccc(OC)c(NC(=O)C2CCCN(S(=O)(=O)c3ccc4c(c3)CCCC(=O)N4)C2)c1 (stereo not given) | 4% | 11%
N#Cc1c(N2CCN(C(=O)C(=O)NCC3CCCO3)CC2)nc(-c2ccccc2)c2c1CCCC2 (stereo not given) | ? | ?
COc1ccc(S(=O)(=O)c2c(Nc3ccc(F)cc3)sc(C(=O)c3ccc(C)cc3C)c2N)cc1 | -18% | 31%[activator]
O=[N+]([O-])c1ccc(N2CCN(CCO)CC2)c2ncccc12 | -3% | -11%
COc1ccc(C)cc1-n1c(SCC(=O)NCc2ccco2)nc2c([nH]c3ccccc32)c1=O | -26% | 12%
CN1CCC(N(C)CC(NC(=O)c2cccc(C(F)(F)F)c2)c2ccccc2)CC1 (stereo not given) | 5% | 16%
CC(CNC(=O)Cc1n[nH]c(=O)c2ccccc12)c1ccccc1 (stereo not given) | 0% | 2%
Cc1ccc(NC(=O)CC(c2ccc(F)cc2)N2Cc3ccccc3C2=O)cc1C (stereo not given) | 6% | -7%
CCNC(=O)c1ccc(CSc2nc3ccncc3n2Cc2ccc(F)cc2)cc1 | 19% | -5%
O=[N+]([O-])c1ccc2[nH]c3c(c2c1)CCC/C3=N\O | 0% | 5%
COc1ccc(C)cc1NC(=O)CN(C)S(=O)(=O)c1ccc2[nH]c(=O)oc2c1 | -12% | 57%[activator]
O=S(=O)(NCCc1ncc2ccccn12)c1ccc(Cl)cc1 | 10% | 38%[activator]
CC1CCN(S(=O)(=O)c2cn(CC(=O)Nc3ccc(F)cc3Cl)cn2)CC1 | 0% | 12%
NS(=O)(=O)c1ccc(NC(=S)Nc2ccccc2)cc1 | 1% | 17%
COc1cccc(-c2nc(SCC(=O)NCc3ccccc3)c3c(=O)n(C)c(=O)n(C)c3n2)c1 | -2% | -6%
Cc1ccc(Sc2nc3c(c(=O)[nH]c(=O)n3C)n2Cc2cccc(C)c2)cc1 | 13% | 7%
CC(=O)N1N=C(c2cc(Cl)ccc2Cl)CC1c1ccc2nccnc2c1 (stereo not given) | -4% | -2%
c1ccc(-c2nc[nH]c2-c2ccccc2)cc1 | -12% | -2%
CCOc1cc2c(cc1NC(=O)CCc1ccco1)OC(C)C2 (stereo not given) | 0% | 33%[activator]
Cc1cc(OCC(=O)Nc2ccc(C(=O)OC(C)C)cc2)cc(C)c1Cl | 16% | 5%

Gathered by group, the entries above with a thiophene ring, fused or not
SMILES | 2A firefly | 2A Renilla
O=C(NCc1cccs1)c1ccc2c(c1)N(Cc1cccc(F)c1)C(=O)c1ccccc1S2 | -18% | 43%[activator]
COC(=O)c1sc(NC(=O)c2csc3ccccc23)nc1C | 161%[activator] | 1%
Cc1sc(/N=C/c2ccc(C(C)(C)C)cc2)c(C#N)c1C | 16% | 2%
Cc1nnc2n1-c1sc(CCc3ccc(CC(C)C)cc3)cc1C(c1ccccc1Cl)=NC2C (stereo not given) | ? | ?
COc1ccc(S(=O)(=O)c2c(Nc3ccc(F)cc3)sc(C(=O)c3ccc(C)cc3C)c2N)cc1 | -18% | 31%[activator]

Some of the entries so far, with two lines to a compound.
The line under a structure holds: 2A firefly, 2A Renilla
- COc1cccc(-c2nc(SCC(=O)NCc3ccccc3)c3c(=O)n(C)c(=O)n(C)c3n2)c1
  -2%, -6%
- Cc1ccc(Sc2nc3c(c(=O)[nH]c(=O)n3C)n2Cc2cccc(C)c2)cc1
  13%, 7%

(cont.)
SMILES | 2A firefly | 2A Renilla
CCOC(=O)CSc1nc2c(c(=O)[nH]c(=O)n2C)n1Cc1ccccc1Cl | 7% | -8%
O=C(CSc1nc2nccnc2c(=O)n1CCc1c[nH]c2ccccc12)Nc1ccc(F)cc1 | 7% | -2%
Cc1ccc(Cn2cnc3c(oc4ccccc43)c2=O)cc1 | 42%[activator] | 36%[activator]
CCOCCSc1nc2c(c(=O)[nH]c(=O)n2C)n1CCC(C)C | -1% | -10%
Cc1cccc(-n2nc(C)c3c2NC(=O)CC3C(=O)c2ccccc2)c1C (stereo not given) | -6% | 8%
O=C(CSc1ccc2c(c1)OCCCO2)c1ccc2c(c1)CCO2 | 96%[activator] | 3%
O=C(CN1CCN(c2nc(-c3cccs3)nc3ccccc23)CC1)N1CCCC1 | 26% | 4%
COc1ccc(-c2onc(C)c2C)cc1S(=O)(=O)NCC(C)c1ccccc1 (stereo not given) | ? | 115%[activator]
CC(C)(C)OC(=O)NC(C)(C)C(=O)NOCc1ccccc1 | 12% | -1%[1.06 µM]
O=C(O)c1ccc(/C=C/C(=O)c2ccco2)cc1 | 75%[activator] | 14%
COc1ccc(-c2nc3c(s2)CN(C(C(=O)O)c2c[nH]c4ccc(CO)cc24)CC3)cc1OC (stereo not given) | 207%[activator] | 1%
O=C(COc1ccc2ccc(=O)oc2c1)N1CCCc2ccccc21 | 13% | 9%
